# TRPML1 ag – human mucolipin-1 channel agonism; AID 624414; actives 0.12% (n = 410,000); TRPML1-expressing cells, Ca2+ dye fluorescence, FDSS; host cell line not named in the record; reference of the full effect not given here; activation, % (concentration not given with the values); Q9GZU1; in the data active = activation above about 50%; inconclusive = about 30% to 50%; inactive = below about 30%; note: 0% is about no effect; the text of the record puts the active cut at 80%
# Target sequence (Q9GZU1 whole entry, looked up): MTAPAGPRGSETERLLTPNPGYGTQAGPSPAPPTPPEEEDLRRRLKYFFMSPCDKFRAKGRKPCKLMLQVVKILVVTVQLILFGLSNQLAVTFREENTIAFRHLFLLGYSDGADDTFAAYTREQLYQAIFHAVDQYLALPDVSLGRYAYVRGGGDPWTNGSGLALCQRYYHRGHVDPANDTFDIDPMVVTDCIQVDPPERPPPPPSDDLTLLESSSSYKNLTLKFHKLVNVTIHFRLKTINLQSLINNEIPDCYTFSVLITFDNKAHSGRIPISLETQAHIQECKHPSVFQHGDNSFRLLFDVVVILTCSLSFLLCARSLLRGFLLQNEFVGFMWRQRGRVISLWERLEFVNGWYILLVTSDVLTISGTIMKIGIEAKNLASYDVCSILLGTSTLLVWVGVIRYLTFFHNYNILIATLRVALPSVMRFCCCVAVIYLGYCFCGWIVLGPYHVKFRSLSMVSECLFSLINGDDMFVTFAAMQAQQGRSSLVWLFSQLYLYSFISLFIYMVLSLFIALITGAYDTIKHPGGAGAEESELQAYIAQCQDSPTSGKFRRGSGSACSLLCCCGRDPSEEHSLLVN
#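 Tetracycline-induced TRPML1-DL cells are seeded and incubated overnight before loading with a no-wash Ca2+ dye and quencher. Agonist activity is taken from the 110 s fluorescence read following compound pin-transfer on an FDSS, before EC80 54-4 challenge.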
# PINK1 modulator – PINK1 expression modulation; PINK1 immunofluorescence, high-content cytometry, 24 h; Potency, µM (series often up to 76.6 µM), inactives show at the top dose activation (PINK1 increase), actives largely listed as activators; actives 0.2% (n = 410,000); active = well fitted activation curve with a large enough effect; inconclusive = small, poorly fitted or top-dose-only effect; inactive = flat fitted curve, though single readings scatter; cell line not stated here;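 note: potency is the fitted concentration of half-maximal effect; % of control where 0% means no effect; nearly all actives have a fitted effect of over 65% in size; a mitochondrial uncoupler was the plate control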
#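 Readout is PINK1 immunofluorescence, quantified alongside mitochondrial, cell and nuclear markers by laser-scanning microplate cytometry. Cells from a stable line were exposed to compound titrations (5 concentrations) for 24 hours, with CCCP controls.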
# D2 agonist – agonists of human D2 dopamine receptor (beta-arrestin) | actives 0.084% (n = 360,000) | DiscoveRx PathHunter D2 beta-arrestin, luminescence, 90 min; 100% = 57 uM dopamine signal | activation, % (concentration not given with the values); in the data active = activation above about 40%; inconclusive = about 15% to 40%; inactive = below about 15%; note: compound concentration not given in the record; the text of the record calls up to 30% inactive
# Target sequence (P14416 whole entry, looked up): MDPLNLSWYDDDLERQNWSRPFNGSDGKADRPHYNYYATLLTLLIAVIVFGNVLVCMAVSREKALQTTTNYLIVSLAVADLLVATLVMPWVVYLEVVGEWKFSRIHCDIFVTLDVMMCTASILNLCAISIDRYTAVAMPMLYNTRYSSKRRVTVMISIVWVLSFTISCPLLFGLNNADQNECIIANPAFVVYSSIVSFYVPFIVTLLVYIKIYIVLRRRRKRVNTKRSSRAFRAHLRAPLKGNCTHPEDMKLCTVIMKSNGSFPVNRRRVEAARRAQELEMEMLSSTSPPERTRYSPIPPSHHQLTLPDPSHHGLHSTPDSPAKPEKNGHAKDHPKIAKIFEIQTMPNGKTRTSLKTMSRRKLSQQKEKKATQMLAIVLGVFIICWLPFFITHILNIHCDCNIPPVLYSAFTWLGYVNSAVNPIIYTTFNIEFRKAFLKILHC
#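 DiscoveRx PathHunter D2 beta-arrestin cells (2,100/well) attached overnight, then compound-stimulated 90 min at 37 C in HBSS/10 mM HEPES/0.1% Tween-20 buffer; beta-galactosidase complementation read by luminescence after 1 h at ambient temperature. Dopamine 57 uM final (EC100) as control.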
# D2 PAM – potentiates the human D2 dopamine receptor allosterically. P14416. DiscoveRx D2 beta-arrestin cells, luminescence, 90 min; 100% = 57 uM dopamine signal. potentiation, % (concentration not given with the values). actives 0.23% (n = 360,000). AID 624464; active = potentiation of 50% or more; inconclusive = 30% to 50%; inactive = 30% or less;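 note: compound concentration not given in the record; tested on top of an EC20 dose of dopamine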
#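 PathHunter beta-arrestin assay in DiscoveRx D2 cells. Compounds were added with an EC20 of dopamine (50 nM final) for 90 min at 37 deg C. Luminescence was read 1 h after detection reagent, with 57 uM dopamine as the EC100 control.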
# Six1-Eya2 inh – inhibitors of human Six1/Eya2 interaction; Q15475+O00167; AlphaScreen GST-Six1/His-Eya2 binding, biochemical; stronger effect = lower value; control for the full effect not named in the record; activity change, % (test concentration not listed); actives 0.56% (n = 360,000); AID 651725; in the data active = activity change below about -65%; inconclusive = about -30% to -65%; inactive = above about -30%; note: % is set by controls: 0 for no effect and ±100 for the full control effect; compound concentration not given in the record
#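 AlphaScreen with GST-Six1 and His-Eya2 (5X mix: 250 nM and 500 nM), glutathione donor and nickel acceptor beads; buffer 50 mM Tris pH 8.0, 300 mM NaCl, 1 mM TCEP; 1 h at 37 C in the dark.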
# CtBP-E1A inh – CtBP/E1A binding inhibition; AID 651724; actives 0.49% (n = 340,000); activity change, % (test concentration not listed); AlphaScreen GST-E1A/His-CtBP binding, 1536-well; stronger effect = lower value; control for the full effect not named in the record; in the data active means activity change below about -65%; inconclusive means about -30% to -65%; inactive means above about -30%; note: % is set by controls: 0 for no effect and ±100 for the full control effect; compound concentration not given in the record
#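 Protein mix (5X: 125 nM each GST-E1A, His-CtBP) was incubated with pinned compound 2 h at 37 deg C in dark, in 50 mM Tris pH 8.0 buffer with 300 mM NaCl. Glutathione donor and nickel acceptor beads followed; AlphaScreen signal read after 1 h.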
# * marks the source's active call; other numbers are inactive results; ? = inconclusive; / = not tested or not shown; & = joins results of further samples; [ ] = dose if it differs, or a comment.
compound,TRPML1 ag,PINK1 modulator,D2 agonist,D2 PAM,Six1-Eya2 inh,CtBP-E1A inh
CC1(C(=O)NS(=O)(=O)c2ccc(Cl)cc2)CCN1C(=O)C1CCCCC1 (stereo not given),0.0,1.8%,-3.3,-4,7,1
O=C(/C=C/c1cccc(Cl)c1)N1CCC(Cc2ccccc2)CC1,2.7,1.3%,0.0,14,2,-3
CCOc1ccc(-c2nc(C#N)c(NCC3CCCO3)o2)cc1 (stereo not given),1.1,/,0.7,12,-13,-20
CN(CC(=O)Nc1cccc(F)c1)C(=O)c1cn(-c2ccccc2)nc1-c1cccs1,-0.5,9.2%,1.4,-6,-6,0
CCc1nc2c(OCc3ccc4c(c3)OCO4)cccn2c1N(C=O)Cc1ccccc1,-1.1,0.0%,-2.5,2,-8,-4
Cn1c(C(=O)OC(C(=O)NC2CCCC2)c2cccnc2)cc2sccc21 (stereo not given),-0.5,0.8%[38.3 µM],-2.9,-12,-1,5
O=C(CC1Oc2ccccc2NC1=O)NCCCN1CCN(C2CCCCC2)CC1 (stereo not given),-0.3,1.5%,-5.4,-6,0,-3
S=c1[nH]nc(-c2cccc(Br)c2)o1,-0.8,-2.0%,-3.2,-15,9,-1
O=C(/C=C/c1ccco1)N(Cc1ccc(Cl)cc1)C1CCS(=O)(=O)C1 (stereo not given),-0.2,-1.5%,-2.5,0,-9,-13
Cc1ccc(C)c(CNS(=O)(=O)c2c(C)[nH]c(C)c2C(=O)N2CCCCC2)c1,0.0,2.7%,-4.4,-14,0,0
Cc1cc(N2CCOCC2)nc(SCC(=O)c2ccc(Cl)cc2)n1,0.1,0.1%,2.5,-6,0,8
Cc1cc(C)cc(N(CCC#N)C(=O)COC(=O)C2=COCCO2)c1,0.6,0.5%,-7.7,26,-4,1

# Ordered by the number under D2 PAM (ascending): three from the list above
Molecule	PINK1 modulator	D2 agonist	D2 PAM	Six1-Eya2 inh	CtBP-E1A inh
O=C(CC1Oc2ccccc2NC1=O)NCCCN1CCN(C2CCCCC2)CC1 (stereo not given)	1.5%	-5.4	-6	0	-3
CC1(C(=O)NS(=O)(=O)c2ccc(Cl)cc2)CCN1C(=O)C1CCCCC1 (stereo not given)	1.8%	-3.3	-4	7	1
CCc1nc2c(OCc3ccc4c(c3)OCO4)cccn2c1N(C=O)Cc1ccccc1	0.0%	-2.5	2	-8	-4

# (listing goes on)
compound,TRPML1 ag,PINK1 modulator,D2 agonist,D2 PAM,Six1-Eya2 inh,CtBP-E1A inh
CSc1nc(N)nc2c1ncn2CC(=O)N[C@H](CO)Cc1c[nH]c2ccccc12,-0.5,0.7%,-1.1,-3,-2,2
O=C(c1ccco1)N1CCN(c2nc3ccccc3n3nnnc23)CC1,-0.3,1.1%,4.5,5,-5,-12
CC(NS(=O)(=O)c1ccccc1)C1COc2ccccc2O1 (stereo not given),-0.2,-0.2%,-2.1,-3,-1,3
Cc1cc(C)n2c(nc3ccccc32)c1C(=O)NCc1ccccc1,1.1,1.3%,1.5,-10,11,/
CCOc1ccc(NC(=O)C2CCCCN2S(=O)(=O)c2ccccc2)cc1 (stereo not given),-0.2,0.6%[38.3 µM],-2.2,-12,0,-3
Cc1ccc(SCCC(=O)OC(C)C(=O)Nc2ccccc2)cc1 (stereo not given),1.3,-1.4%,-1.5,-12,13,-13
CCOc1ccc(-n2ccnc(SCC(=O)Nc3cccc(OC)c3)c2=O)cc1,0.1,-2.3%,7.5,5,1,0
O=C(N1CCCCC1)N1CCN(S(=O)(=O)c2ccccc2)CC1,-0.4,4.3%,0.9,-13,7,2
CC(=O)Nc1ccc(S(=O)(=O)Nc2cccc(-c3cn4cccnc4n3)c2)cc1,0.2,1.4%,-17,-1,?,-12
N#CCCN1CCN(S(=O)(=O)c2ccc3c(c2)OCCCO3)CC1,-0.7,1.3%,-8.8,4,1,-8
COc1cc(S(=O)(=O)Nc2ncccc2C)c(OC)cc1Cl,1.7,1.7%,1.2,22,7,1
Cc1ccc(S(=O)(=O)Oc2cccc(/C=N/Nc3ccc(C(=O)O)cc3)c2)cc1,0.7,1.4%,2.6,7,-3,-1
COc1cc(/C=C(\C#N)C(=O)NCc2ccccc2)ccc1OCc1ccc(C(=O)O)cc1,/,0.7%,-4.9,-1,-10,?
Cc1cc2ccccc2n1CCNC(=O)c1ccc(S(=O)(=O)N2CCOCC2)cc1,0.5,-4.9%[38.3 µM],1.3,-8,-6,6
CCCc1cc(=O)oc2cc(C)c3c(C)coc3c12,2.8,3.4%[38.3 µM],-2.9,-5,2,7
COc1ccc(-c2nn(-c3ccccc3)cc2C(=O)N2c3ccc(C)cc3C3CN(C)CCC32)cc1 (stereo not given),-0.7,2.4%,-5.6,-14,-18,-8
O=C(CCN1CCC2CCC(C2)C1)c1ccccc1 (stereo not given),0.4,0.6%,-3.7,-6,-8,-4
CCCNS(=O)(=O)c1ccc(CCC(=O)N2CCN(c3ccc(F)cc3)CC2)cc1,2.7,-1.0%,7.8,16,6,2
COc1ccccc1C(=O)Nc1nc(-c2ccc(S(=O)(=O)N3CCOCC3)cc2)cs1,0.6,2.5%,9.1,56*,?,?
O=C(COC(=O)/C=C/c1cccc([N+](=O)[O-])c1)Nc1ccc(Cl)cn1,1.5,0.2%,-1.7,-3,-1,-15
Cc1cc(OCC(=O)NCc2cccnc2)ccc1[N+](=O)[O-],0.8,-1.9%,-4.6,-3,-12,-10
C[C@H](NC(=O)c1ncn(C)c1C(=O)N[C@@H](C)c1ccccc1)c1ccccc1,0.2,-0.2%,-3.3,-2,0,/
COCCN(Cc1cc2ccccc2[nH]c1=O)C(=O)c1ccccc1OC,0.3,0.5%,-3.0,9,8,4
CC(=O)Nc1cc(-c2cccc(C(=O)NCCN(C)C)c2)cn2c(-c3ccccc3)cnc12,-0.5,2.1%,-7.2,-18,4,-18
COc1cccc(/C=N/n2c(-c3n[nH]c4c3CCC4)n[nH]c2=S)c1OC,0.4,0.6%,-4.4,-13,7,0
O=C(CSc1nnc(NC(=O)c2ccc(F)cc2)s1)NCc1ccco1,-0.3,2.6%,1.5,19,-8,5
N#C/C(=C\c1ccc(N2CCOCC2)c([N+](=O)[O-])c1)c1nc2ccccc2[nH]1,0.4,-2.2%,-1.5,1,-15,?
C=CCN1C(=O)C2(NC(=O)c3ccccc3N2)c2ccccc21 (stereo not given),-0.8,5.9%,-1.6,-8,-2,3
Nc1ccc(N2CCCCC2)c(S(=O)(=O)Nc2ccccc2Cl)c1,0.4,1.3%,1.9,3,-25,-17
CCN(CC)C(=O)[C@H]1CC(CC(=O)NCCC2=CCCCC2)C(=O)N2CCc3c([nH]c4ccc(OC)cc34)[C@]12C (stereo not given in full),-1.2,0.1%,0.0,-1,-2,-4
O=S(=O)(c1ccc2ccccc2c1)N1CCN(C2Cc3ccccc3C2)CC1,2.4,5.8%,0.2,-14,3,22
O=C(O)c1ccccc1C=NN=C1c2ccccc2-c2ccccc21,1.1,-3.3%,-4.5,-15,-2,0
CCn1nnnc1SCCSc1nnnn1CC,-0.2,-4.5%[38.3 µM],-0.1,-16,1,19
O=C1C=C(NCCOC23CC4CC(CC(C4)C2)C3)C2(CCCCC2)O1,-0.3,-1.3%,-2.3,-11,0,9
CCN1C(=O)N[C@@H](c2ccccc2)[C@H](C(C)=O)[C@H]1C,-0.1,1.6%,-2.0,-12,15,/
Cc1c(NC(=O)c2cc3nc(-c4ccc(Cl)cc4)cc(C(F)(F)F)n3n2)c(=O)n(-c2ccccc2)n1C,1.0,4.0%,-0.9,-8,3,-3
CC(C)CC(C(=O)Nn1cnnc1)N1C(=O)c2ccccc2C1=O (stereo not given),0.4,15%[38.3 µM],0.0,-6,-2,-3
CCOc1ccc(S(=O)(=O)NCCC(=O)Nc2ccncc2)cc1,-0.8,3.7%,1.5,21,2,2
CO[C@@]12[C@H](COC(N)=O)C3=C(C(=O)C(C)=C(N)C3=O)N1C[C@@H]1N[C@@H]12,0.4,0.4%,5.3,-2,1,-5
O=C(Nc1ccon1)c1cc2ccccc2oc1=O,0.1,1.6%[38.3 µM],-0.8,-4,-5,-5
CCOc1ccc(N(Cc2cc3ccc(C)cc3[nH]c2=O)C(=O)COC)cc1,3.6,1.5%,-2.4,-13,0,1
O=C(Nc1cccc(Cl)c1)Nc1nnc([C@@H]2C[C@H](O)[C@@H](CO)O2)s1,0.1,0.9%,-5.3,2,-7,0
CC1CCN(CCCNC(=O)c2nn(C)c3c2CS(=O)(=O)c2ccccc2-3)CC1,-0.6,0.8%,-3.3,-23,-1,5
O=C(O)CCCN=C1CCCc2ccccc2N1,1.4,2.3%,-1.7,-5,8,2
CC1CCCCN1C(=S)Nc1ccc(S(=O)(=O)N2CCCCC2)cc1 (stereo not given),0.1,0.1%,-3.1,-9,25,0
O=C(NCc1ccccc1Cl)c1ccncc1,-0.8,0.2%,2.6,-2,-8,-10
CCOC(=O)C1CCN(C(=O)COC(=O)c2ccc3c(c2)C(=O)N(c2ccc(OCC)cc2)C3=O)CC1,0.0,-1.5%,8.6,-12,-1,/
CCN1CCN(C(=O)c2ccc(Sc3ccccc3Cl)c([N+](=O)[O-])c2)CC1,1.0,3.2%,0.9,-26,-15,4
Cc1cc(C)c2c3c(sc2n1)C(c1cccc(F)c1)C(C#N)=C(N)O3 (stereo not given),1.1,3.5%[38.3 µM],-2.6,-6,-4,-1
CC1CCCCC1NC(=O)c1ccc(S(=O)(=O)NCc2ccco2)cc1 (stereo not given),0.3,5.1%[38.3 µM],2.1,-12,-3,6
COc1cc(NC(=O)n2ncc3cc(Cl)ccc32)cc(OC)c1,/,-0.2%,-13,-11,3,-16
O=C(O)C1=C[C@H](c2ccccc2)C[C@H](OCCCCO)O1,-1.0,1.2%,-2.5,-30,0,-2
NC(=O)c1cc(S(=O)(=O)N2CCCCC2)cs1,0.8&0.0,0.6%&-0.6%,7.8,-9,7,/
Cn1c(=O)c2c(nc(OCc3cccnc3)n2Cc2ccccc2)n(C)c1=O,0.3,-0.8%,0.4,-8,-3,-2
O=C(Cn1ccc([N+](=O)[O-])n1)NCc1ccco1,-0.1,/,-1.1,-11,5,5
CCOC(=O)c1csc(NC(=O)CC2CCCC2)n1,4.5,3.8%,6.6,-6,6,7
Cc1nn2cc(-c3ncc(C(F)(F)F)cc3Cl)cnc2c1Br,-0.5,0.4%,3.4,-6,4,/
CC(OC(=O)c1cc2c(s1)CCCCC2)C(=O)NC(N)=O (stereo not given),-0.9,0.2%,-3.8,-1,2,-4
Cc1ccc(S(=O)(=O)N2CCC(C(=O)NCc3ccccc3CN3CCCC3)CC2)cc1C,0.1,-1.4%,0.1,-13,-2,0
C=CCn1cnc2c(c1=O)c1nc3ccccc3nc1n2/N=C/c1ccccn1,-0.1,-3.8%[38.3 µM],3.1,2,-19,-23
CN(Cc1ccccc1)C(=O)c1csc([C@@H]2O[C@H](CO)[C@@H](O)[C@H]2O)n1,-0.1,0.5%,-4.1,-7,9,-1

# Screens as filed in PubChem.
